CBX7 AlphaScr: inhibitors of human CBX7 binding to H3K27me3 peptide | AlphaScreen His6-CBX7 / biotin-H3K27me3 peptide binding; stronger effect = lower value | normalised signal (fraction of DMSO) (test concentration not listed) | actives 1.1% (n = 66,000); in the data active = normalised signal below about 0.5;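 also: 100 nL library stock added to about 20 µL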
Target sequence (O95931 whole entry, looked up): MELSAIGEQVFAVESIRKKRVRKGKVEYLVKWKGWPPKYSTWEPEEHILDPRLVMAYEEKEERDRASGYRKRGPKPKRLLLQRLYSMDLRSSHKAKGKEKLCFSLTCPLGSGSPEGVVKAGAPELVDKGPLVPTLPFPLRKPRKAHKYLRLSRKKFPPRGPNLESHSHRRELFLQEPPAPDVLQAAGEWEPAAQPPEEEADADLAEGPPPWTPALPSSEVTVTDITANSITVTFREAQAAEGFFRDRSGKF
CBX7 AlphaScr z-score: further read-out of CBX7 AlphaScr, marked with its call; z-score; measured here: z-score of CBX7 signal; some inactives read as strong as hits; reference of the scale not given here;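 same signal on another scale; lower means less binding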
* = called active by the depositor; & = joins results of further samples. Not all compounds are listed, so the mix of outcomes need not match the whole.

SMILES	CBX7 AlphaScr	CBX7 AlphaScr z-score
O=C(CSc1nc2ccccc2c(=O)[nH]1)N1CCCCC1	1	1.8
COc1ccc(-c2c(C)[nH]n3c(=O)cc(C)nc23)cc1OC	0.99	-0.13
Cc1ccc(OCc2nc3ccccc3n2C)cc1	1	0.23
CC(C)(C)c1ccc(-c2nnc3sc(-c4ccccn4)nn23)cc1	0.11*	-26*
Cc1cc(N2CCOCC2)nc2ccc(O)cc12	1	-0.033
CCOC(=O)c1ccc(N2C(=O)C(Oc3ccc(Cl)cc3)C2c2ccccc2OC)cc1 (stereo not drawn)	1.1	2.3
Cc1ccc(Cn2nnc3c(=O)n(CC(=O)Nc4ccccc4F)cnc32)cc1	0.99	-0.15
CCN(CCCNC(=O)C1CCC(=O)N1Cc1ccccc1Cl)c1cccc(C)c1 (stereo not drawn)	0.65	-6.9
CCN1CCN(C(c2cccs2)C(C)NC(=O)c2ccncc2)CC1 (stereo not drawn)	1.1	0.76
Cc1cc(C)c2oc(-c3ccc(C)c(NC(=O)c4ccccc4F)c3)nc2c1	1	0.15
O=C(Cc1ccccc1)Nc1ccc(O)c(-c2nc3ccccc3s2)c1	0.81	-2.3
CCc1cccc(NC(=O)C2CCN(S(=O)(=O)c3cccs3)CC2)c1	0.98	-0.38
O=C(Nc1ccc2oc(-c3ccncc3)nc2c1)c1ccc(F)cc1	0.8	-3.5
Cc1cc2c(cc1C)C(c1ccccc1F)CC(=O)N2 (stereo not drawn)	1	0.013
CCOc1ccc(Nc2oc(-c3ccc(F)cc3)nc2C#N)cc1	0.89	-1.3
Cc1ccnc(NS(=O)(=O)c2ccc(NC(=O)c3cccc(Cl)c3)cc2)n1	1.1	1.3
COCCCNC(=O)c1ccc2c(c1)N(Cc1cc(C)ccc1C)C(=O)c1ccccc1S2=O (stereo not drawn)	0.91	-1.4
Cc1ccc2cc(CCNC(=O)c3ccc(C)c(C)c3)c(=O)[nH]c2c1	1	1.6
CCc1ccc2c(c1)C(c1ccc(O)c(C)c1)(c1ccc(O)c(C)c1)C(=O)N2	0.81	-1.5
COc1ccc2c(c1)c(=O)c(S(=O)(=O)c1ccc(Cl)cc1)cn2CC(=O)Nc1cccc(C)c1	0.88	-1.7
COc1ccc(-c2nc(CSCC(=O)NCc3cccs3)c(C)o2)cc1	1.2	1.4
CCOc1ccccc1CNC(=O)CCCc1cn(C)c2ccccc12	0.38*	-0.62*
COc1cccc(NC(=O)c2sc3ncnc(N4CCOCC4)c3c2C)c1	1	1.1
COc1ccc(NC(=O)Cn2c(=O)n(-c3ccc(C)c(F)c3)c(=O)c3sccc32)cc1Cl	1	0.4
CCN1C(=O)c2ccccc2S(=O)(=O)c2ccc(C(=O)NCc3ccccc3OC)cc21	1	1.2
CC(=O)Nc1ccccc1-c1nc2ccc(C(=O)N3CCC(Cc4ccccc4)CC3)cc2[nH]c1=O	1	0.35
CCC(C)NC(=O)c1ccc2c(c1)N(Cc1cccc(Cl)c1)C(=O)c1ccccc1S2 (stereo not drawn)	0.8	-2.1
Cc1oc(-c2ccc(Cl)cc2)nc1C(=O)NC1CCC(C)CC1 (stereo not drawn)	1	0.064
CCc1nnc(NC(=O)Nc2cccc(C)c2)s1	1.1	1.8
COc1ccc2nc(N3CCCC(C(=O)NCCC4=CCCCC4)C3)[nH]c2c1 (stereo not drawn)	0.96	-1.5
Cc1cc(C)c(C#N)c(Nc2ccc(Cl)cc2)n1	1	1.4
OCCNC1CCCc2c1[nH]c1ccc(Br)cc21 (stereo not drawn)	0.9	-0.39
COc1cccc(CNC(=O)c2ccc(NC3=NC4CS(=O)(=O)CC4S3)cc2)c1 (stereo not drawn)	1	0.25
COc1ccc(-n2c(Cc3cc(=O)[nH]c(=O)[nH]3)nnc2SCC(=O)Nc2cccc(Cl)c2)cc1	0.78	-3.4
Cc1c(CNCc2cccs2)c(C(=O)O)c(C)n1Cc1ccccc1	0.98	-0.76
Cc1ccc(OCC(=O)Nc2cccc(-c3nc4ccccc4o3)c2)cc1	1.2	1.4
Cc1cc2nc(-c3ccc(N)cc3)oc2cc1C	1.1	2.3
CC(=O)Nc1nonc1-c1nc2ccccc2n1Cc1ccc(F)cc1	0.89	-1.7
CCOc1ccc(N2C(=O)c3ccc(N4Cc5ccccc5C4)cc3C2=O)cc1	0.93	-0.83
Cc1ccc(NC(=O)CS(=O)(=O)c2nc(-c3ccccc3)cn2-c2ccc(Cl)cc2)cc1	0.79	-2
CCN(CC)CCNC(=O)CC1Oc2ccc(C)cc2NC1=O (stereo not drawn)	0.96	-0.85
Cc1ccccc1NC(=O)CCNS(=O)(=O)c1ccc2c(c1)CCC(=O)N2	0.69	-6
CC(C)CSc1oc(-c2cccs2)nc1S(=O)(=O)c1ccc(Br)cc1	1	0.0026
COc1ccc(NS(=O)(=O)c2ccc3c(c2)CCN3C(=O)C2CC2)cc1Cl	0.91	-1
Cc1ccc(-n2ncc(C(=O)Nc3ccc(F)cc3)c2C2CCN(C(=O)OC(C)(C)C)CC2)cc1C	1	1.6
CCOC(=O)N1CCC(Nc2c(N3CCc4ccccc4C3)c(=O)c2=O)CC1	0.84	-1.9
CCOC(=O)c1c(C)n(-c2ccc(C)cc2)c2ccc(OCC(O)CN3CCCCC3C)cc12 (stereo not drawn)	1.7	11
Cc1[nH]c2ccccc2c1/C=C/c1nc2ccccc2c(=O)n1C	0.93	-0.073
CCN(CCCNC(=O)C1CCC(=O)N1Cc1ccc(F)cc1)c1cccc(C)c1 (stereo not drawn)	0.92	-2.2
O=C(CSc1nnc(Cc2cc(=O)[nH]c(=O)[nH]2)n1-c1ccccc1)NCc1ccc(F)cc1	1.1	1.8
CC(C)NC(=O)CN1C(=O)CSc2ncccc21	1	0.093
CN(C(=O)Cc1c(C(=O)O)[nH]c2ccccc12)c1cccc(Cl)c1	1.1	2.3
COc1ccc(-c2noc(CCC(=O)NCc3ccc(C)cc3)n2)cc1	0.88	-0.12
O=C1CCc2cc(S(=O)(=O)NC(C(=O)Nc3ccc(F)cc3F)c3ccccc3)ccc2N1 (stereo not drawn)	1.2	2.8
COc1ccc(-n2nnc3c(=O)n(CC(=O)Nc4cc(C)cc(C)c4)cnc32)cc1	0.92	-1.5
COc1ccccc1-c1nnc(SCc2ccccc2)o1	1.4	1.5
COC(=O)C1CCN(c2cc(=O)n(-c3ccc(OC)cc3)c(=O)[nH]2)CC1	1	0.25
CC(=O)N1c2cc(Br)ccc2NC(=O)CC1C (stereo not drawn)	1	1.6
Cc1ccc(Cc2c(C)nc3c(C(=O)N4CCCC4)cnn3c2C)cc1	0.97	-0.92
CC(C)CSc1oc(-c2cccs2)nc1S(=O)(=O)c1ccc(Cl)cc1	0.92	-0.14
Following part:
SMILES	CBX7 AlphaScr	CBX7 AlphaScr z-score
O=C1COc2ccccc2CN1c1ccc(Cl)c(Cl)c1	1.2	4.4
O=C(NCc1ccccc1)C1CCN(c2nc3ccccc3n2Cc2ccc(F)cc2)CC1	0.89	-1.3
COc1ccccc1CNC(=O)c1ccc2c(c1)N(Cc1cccc(Cl)c1)C(=O)CS2	1	0.84
Cc1ccc(-c2nnc(SCC(=O)Nc3cc(C)on3)o2)cc1	1.2	2.9
COc1ccccc1-c1c(C)nn2c(NCCN3CCN(c4cccc(Cl)c4)CC3)cc(C)nc12	0.99	-0.33
Cc1cc(OCC(=O)Nc2nc3ccccc3s2)cc(C)c1Cl	1.1	0.44
Cc1cccc(NC(=O)c2cc(S(=O)(=O)N3CCOCC3)cs2)c1	0.95	-0.66
O=C(C1CC1)N1CCc2cc(S(=O)(=O)N(CCO)Cc3ccccc3)ccc21	0.82	-0.71
O=C(Nc1nnc(-c2ccccc2Cl)s1)c1ccc(F)cc1	1	0.95
COc1c(C(=O)Nc2ccc(Br)cn2)ccc2ccccc12	0.94	-0.72
Cc1ccc(CN2C(=O)CCC2C(=O)NCCN2CCCC2)cc1 (stereo not drawn)	1	2.1
CCn1c(NCc2cccc(Br)c2)nc2ccccc21	0.9	-1.9
O=C(COc1ccccc1)N1CCN(c2nnc(-c3ccccc3)c3ccccc23)CC1	0.96	-0.82
COc1ccc(OC2C(=O)N(c3cccc(C(F)(F)F)c3)C2c2ccc(OC)c(OC)c2)cc1 (stereo not drawn)	1.1	4.3
CCCC(=O)NCCc1nc2ccccc2n1CC	1.1	1.5
Cc1cccc(C(=O)NCCc2cc3ccc(C)c(C)c3[nH]c2=O)c1	0.97	-0.69
Cc1[nH]c2ccccc2c1CCNC(=O)c1ccc(Cl)cc1Cl	0.73	-4.9
COc1ccc(NC2c3ccccc3C(=O)N2c2cccnc2)cc1Cl (stereo not drawn)	0.98	-0.38
O=C(Nc1ccc(F)cc1)C1CC(=O)N(c2ccc(Cl)cc2)C1 (stereo not drawn)	0.99	-0.28
CCOC(=O)c1ccc(Nc2cc(C)nc3ccc(OC)cc23)cc1	0.92&0.93	-0.98&-0.32

Reformatted with two lines to a compound: 13 of the compounds above.
Values run as follows: CBX7 AlphaScr	CBX7 AlphaScr z-score
> O=C1COc2ccccc2CN1c1ccc(Cl)c(Cl)c1
    1.2	4.4
> O=C(NCc1ccccc1)C1CCN(c2nc3ccccc3n2Cc2ccc(F)cc2)CC1
    0.89	-1.3
> COc1ccccc1CNC(=O)c1ccc2c(c1)N(Cc1cccc(Cl)c1)C(=O)CS2
    1	0.84
> Cc1ccc(-c2nnc(SCC(=O)Nc3cc(C)on3)o2)cc1
    1.2	2.9
> COc1ccccc1-c1c(C)nn2c(NCCN3CCN(c4cccc(Cl)c4)CC3)cc(C)nc12
    0.99	-0.33
> Cc1cc(OCC(=O)Nc2nc3ccccc3s2)cc(C)c1Cl
    1.1	0.44
> Cc1cccc(NC(=O)c2cc(S(=O)(=O)N3CCOCC3)cs2)c1
    0.95	-0.66
> O=C(C1CC1)N1CCc2cc(S(=O)(=O)N(CCO)Cc3ccccc3)ccc21
    0.82	-0.71
> O=C(Nc1nnc(-c2ccccc2Cl)s1)c1ccc(F)cc1
    1	0.95
> COc1c(C(=O)Nc2ccc(Br)cn2)ccc2ccccc12
    0.94	-0.72
> Cc1ccc(CN2C(=O)CCC2C(=O)NCCN2CCCC2)cc1 (stereo not drawn)
    1	2.1
> CCn1c(NCc2cccc(Br)c2)nc2ccccc21
    0.9	-1.9
> O=C(COc1ccccc1)N1CCN(c2nnc(-c3ccccc3)c3ccccc23)CC1
    0.96	-0.82

As entered above.
Under CBX7 AlphaScr z-score, CCn1c(NCc2cccc(Br)c2)nc2ccccc21 has -1.9
Under CBX7 AlphaScr z-score, COc1ccccc1-c1c(C)nn2c(NCCN3CCN(c4cccc(Cl)c4)CC3)cc(C)nc12 has -0.33

Next results follow.
SMILES	CBX7 AlphaScr	CBX7 AlphaScr z-score
COCCNC(=O)c1c[nH]c2ccc(S(=O)(=O)Nc3cccc(SC)c3)cc2c1=O	1	-0.027
O=C(CSc1nc2ccccc2[nH]1)Nc1cc(C(F)(F)F)cc(C(F)(F)F)c1	0.82	-0.7
Cc1ccc(Cl)cc1N1CCN(C(=O)c2csc3c2CCCCC3)CC1	1	0.23
Cc1ccccc1C(=O)N1CC(=O)Nc2ccc(F)cc2C1c1ccc(F)cc1 (stereo not drawn)	0.93	-0.14
CS(=O)(=O)c1ccc2nc(NC(=O)CCOc3ccccc3)sc2c1	1	0.93
CCOc1cc2[nH]c(=O)n(CCCC(=O)NCc3cccnc3)c(=O)c2cc1OCC	0.99	-0.28
CCC(C)NC(=O)C1c2ccccc2C(=O)N1Cc1ccccc1OC (stereo not drawn)	1	-0.022
O=C(CSc1nc(NCc2ccc3c(c2)OCO3)c2ccccc2n1)c1ccc(F)cc1	0.85	-0.42
Cc1ccc(Cl)cc1N1CCN(CCCNC(=O)CC2Oc3ccccc3NC2=O)CC1 (stereo not drawn)	1.1	0.36
COc1ccc(C(=O)N2CC(=O)Nc3ccc(Br)cc3C2c2ccc(F)cc2)cc1 (stereo not drawn)	0.93	-1.4
COc1ccc(-c2nc(CSCC(=O)NCC(OC)OC)c(C)o2)cc1OC	0.92	-1.3
Cc1cccc(OCC(=O)Nc2ccc(-c3nc4ncccc4o3)cc2)c1C	1.1	0.59
Cc1ccc(CNS(=O)(=O)c2c(C)noc2C)cc1	0.98	-0.83
O=C1c2ccccc2C(=O)N1c1ccc2nc(SCc3ccc(F)c4ccccc34)sc2c1	0.87	-2.1
COCCN1Cc2cccc(C(=O)Nc3ccc(C)c(C)c3)c2C1=O	0.98	-0.29
CCOC(=O)c1c(NC(=O)c2ccc(S(=O)(=O)N(C)C)cc2)sc2c1CCN(CC)C2	1	1.6
CCc1ccccc1NS(=O)(=O)c1ccc2[nH]cc(C(=O)NC(C)CC)c(=O)c2c1 (stereo not drawn)	1.1	1.2
Cc1ccc(CCNC(=O)c2cc3c(s2)CS(=O)(=O)C3)cc1	0.99	-0.27
COc1ccc(C(=O)Nc2cnc3ccccc3c2)cc1OC	0.97	-0.61
CCOc1ccc(NC(=O)CSc2nccn2-c2ccc(Cl)cc2)cc1	0.86	-0.5
CC1CCCC(C)N1C(=O)c1cc2c(s1)-c1ccccc1OC2 (stereo not drawn)	1.1	2.3
CCCNC(=O)c1ccc2c(c1)nc(C)n2-c1ccc(OCC)cc1	0.88	-1.5
CCOC(=O)c1c(NC(=O)c2ccc(OC)cc2)sc2c1CCC(CC)C2 (stereo not drawn)	1.4	4.9
CCc1ccc(NC(=O)c2cc(-c3ccc(OC)cc3)on2)cc1	1	0.068
OC(CN1CCCCC1)Cn1c(C(F)(F)F)nc2ccccc21 (stereo not drawn)	0.88	-1.6
O=C(Cn1nnc(-c2ccccc2F)n1)NCc1ccc2c(c1)OCO2	1.1	1.4
N#Cc1nc(-c2ccc(F)cc2)oc1N1CCCCCC1	0.79	-2.3
CNC(=O)c1ccccc1NC(=O)c1cccc(S(=O)(=O)N2CCCCC2)c1	1.1	0.57
COc1ccc(-n2nc(C(=O)NCC(=O)NCCN(C)C)c3ccccc3c2=O)cc1	1	0.62
CCCOc1ccc(C2C(=O)N(C3CCCCCC3)CC(=O)N2Cc2ccc(C)cc2)cc1OC (stereo not drawn)	1.4	1.8
O=C(CSc1nc(-c2ccccc2)[nH]c1-c1ccccc1)Nc1ccc(F)cc1	0.93	-3.2
